Source: PubChem BioAssay
Autofluor counter = flagged as autofluorescent in microsphere protease counterscreen; compound autofluorescence counterscreen, microsphere flow cytometry; hits give high values; 360,000 tested, 3.1% active; fluorescence intensity (test concentration not listed);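 active = at least 3 SD above the mean of all compounds, about 16000 in these data; inconclusive = too few beads counted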;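 note: 100 nL of 1 mM stock went into each well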
Mtb hypoxia inh = inhibitors of hypoxia-regulated fluorescent reporter in Mycobacterium tuberculosis | 300,000 tested, 0.1% active | M. tuberculosis hypoxia-regulated fluorescent reporter, fluorescence | fluorescence inhibition, % (concentration not given with the values);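 active = 35 to 45% if threefold the growth effect, above 45% if 1.5-fold the growth effect; inactive = the rest, general growth blockers included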;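 note: wells of about 50 µL received 100 nL stock; 0% = vehicle wells and 100% = reference inhibitor wells; whole bacteria with a GFP reporter of the hypoxia response; strong numbers were not always called active; many hits fall short of the cut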
BJeLR viability = kills HRASV12-expressing BJeLR cells. inhibition, % (test concentration not listed). 300,000 tested, 0.17% active. AID 1554. BJeLR (HRASV12) viability, CellTiter-Glo ATP luminescence, 48 h; reference of the scale not given here;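 active = replicate mean above 50%; inconclusive = above 50% but judged a plate artefact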;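 note: 50 nL library stock added to about 25 µL; numbers are from one replicate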
PrP UTR inh = inhibition of PrP 5' UTR reporter expression. cell-based PrP 5' UTR mRNA reporter, plate reader. inhibition, % (concentration not given with the values). 340,000 tested, 0.35% active;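 active = every replicate at 50% or more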;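 note: 0 = median of the neutral control wells; tested in H4 reporter cells; numbers are from one replicate; inactives centre near -14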
RN4220 kill = S. aureus RN4220 growth inhibition; inhibition, % (test concentration not listed); 330,000 tested, 0.33% active; AID 1259311; OD600, 16 h;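 active = z-score of -3 or lower and OD600 up to 0.18 on both plates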;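 note: plate controls were untreated cells for no effect and reference antibiotic for full effect; stock transfer was 100 nL into about 80 µL; one replicate is shown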
Sa ugtP lethal = compounds lethal to S. aureus RN4220 ugtP deletion mutant. 330,000 tested, 0.54% active. OD600 growth, 16 h; some inactives read as strong as hits. growth inhibition, % (no concentration beside the values);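 active = z-score under -3 and OD600 up to 0.15 on both plates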;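 note: plate controls were untreated wells for no effect and antibiotic for full effect; wells of about 80 µL received 100 nL stock; the first replicate is given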
Mtb hypoxia inh growth = second read-out of Mtb hypoxia inh, no call of its own (marks repeat the call); growth inhibition, %; measured here: M. tuberculosis growth (absorbance);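 0% = vehicle and 100% = reference antibiotic; read after six days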
Active calls of the source: *; ? = inconclusive; / = no result given.

SMILES | Autofluor counter | Mtb hypoxia inh | Mtb hypoxia inh growth | BJeLR viability | PrP UTR inh | RN4220 kill | Sa ugtP lethal
COC(=O)c1cc(N=Nc2c(C)[nH]c3ccccc23)cc(C(=O)OC)c1 | 5536 | -1 | -6 | 9 | -16 | 2.5 | 0
COC(=O)C1CC2CCC(O)CC2N1Cc1ccc(OC)cc1 (centres undefined) | / | 2 | 1 | / | / | 4.6 | -7
COc1cccc(C=NNC(=O)C(C)SC(C)C(=O)NN=Cc2cccc(OC)c2)c1 (centres undefined) | 4133 | 3 | 11 | / | -22 | 1.1 | 3
COc1ccc(C(=O)N(C)C2CCCN(Cc3ccccc3F)C2)cc1C (centres undefined) | 5631 | -1 | -6 | -4 | -28 | 3.8 | 7
COc1ccc2oc(-c3cccc(NC(=O)CSc4ccc(Cl)cc4)c3)nc2c1 | 2555 | -4 | 2 | -2 | -68 | 19 | -2
NC(=O)CSc1nc2ccccc2c(=O)n1-c1ccccc1 | 4175 | 9 | 3 | -9 | -10 | 1.8 | 9
CCOC(=O)Cc1c(C)nc2c(-c3ccc(Cl)cc3)c(C)nn2c1C | 2580 | -5 | 3 | 1 | 2 | -2.0 | 9
CC12CCC(=O)N1C(C(=O)Nc1ccc(Cl)c(S(=O)(=O)N3CCCCC3)c1)CS2 (centres undefined) | 6458 | 3 | 0 | -3 | -14 | 0.8 | 6
CCCN(CC(=O)Nc1ccccc1C)C(=O)c1cccc(S(=O)(=O)N2CCN(c3ccccc3)CC2)c1 | ? | 4 | 2 | 16 | -9 | 0.8 | 7
O=[N+]([O-])c1ccc(O)c(/C=N/Nc2ccccn2)c1 | 2089 | / | / | 22 | 54* | / | /
C[C@@H](C(=O)N1CCNCC1)n1cc(CCCN=C(N)N)nn1 | 4040 | / | / | -17 | -4 | / | /
CCCCOC(=O)CSc1nnc(N)s1 | 11966 | 1 | 8 | 6 | -14 | 0.3 | 3
CC1=CCC[C@@H]2[C@@](C)(CC/C(C)=C/C(=O)O)[C@H](C)CC[C@@]12C | 3607 | / | / | 6 | -9 | / | /
CN(C)S(=O)(=O)c1ccc(NC(=O)N2CCOCC2)cc1 | 4268 | 4 | 12 | 5 | -17 | 0.4 | 6
COc1cc(C2=NOC(C(=O)NCc3ccco3)C2)cc(OC)c1OC (centres undefined) | 8211 | 4 | 9 | 28 | -64 | -0.6 | 6
CC(C)CCNC(=O)c1cc2c(=O)[nH]c3ccccc3c2s1 | 4346 | 15 | 0 | -3 | -17 | 4.9 | -1
Cc1nn(-c2ccccc2)c2sc(C(=O)N(CC(=O)NC(C)(C)C)Cc3ccco3)cc12 | 3547 | / | / | -8 | -4 | 9.6 | 17
O=C(Cc1ccccc1)NNC(=O)C1CC=CCC1 (centres undefined) | 3096 | -3 | 0 | 9 | 3 | 4.2 | 1
CNc1snc(C)c1C(=O)OC(C)C(=O)Nc1cccc(OC)c1 (centres undefined) | 2996 | -3 | -7 | / | 7 | 4.7 | 6
COc1ccc(NS(=O)(=O)c2ccc(NC(=S)NC(=O)c3cccc(F)c3)cc2)nn1 | 10819 | / | / | 6 | -16 | / | /
CCOc1ccc(-c2ccc(SCC(=O)NCC3CCCO3)nn2)cc1 (centres undefined) | 3148 | 3 | 2 | -21 | -78 | 6.9 | 23
Cc1ccc(S(=O)(=O)N2CCCCC2)cc1NC(=O)CSc1nnc(N)s1 | 4846 | 3 | -1 | -5 | -7 | -1.1 | 6
O=C(OCC#CCSc1nnc(-c2cccc3ccccc23)o1)c1ccc2ccccc2c1 | 4207 | 20 | 12 | / | -23 | 5.5 | 13
COc1ccc2ccccc2c1C=NNC(=O)c1nnn(-c2nonc2N)c1CN(C)C | / | 4 | 1 | / | / | 1.5 | 4
O=[N+]([O-])c1ccc2c(c1)[nH]c(=S)n2-c1ccccc1 | 3704 | 16 | 0 | -6 | -3 | 12 | 2
Later entries
SMILES | Autofluor counter | Mtb hypoxia inh | Mtb hypoxia inh growth | BJeLR viability | PrP UTR inh | RN4220 kill | Sa ugtP lethal
CC(=O)c1cccc(NS(=O)(=O)c2ccc(N/C=C/C(=O)c3ccc(F)cc3)cc2)c1 | 2118 | 2 | 8 | 1 | -22 | -3.2 | -8
Cc1ccc2nc(N3CCN(C(=O)c4cccs4)CC3)c(C#N)cc2c1 | 5244 | / | / | -14 | -33 | 17 | 10
Cc1oc2cc3oc(=O)c(CCC(=O)NC4CC4)c(C)c3cc2c1C | 3871 | / | / | -5 | -19 | 0.7 | -9
CC(=O)c1cccc(N2C(=O)CC(N3CCN(S(=O)(=O)c4ccccc4F)CC3)C2=O)c1 (centres undefined) | 3254 | 9 | 10 | / | -14 | 1.0 | 8
S=C(NCc1ccccc1)NCc1ccc(Cl)cc1 | 6534 | -2 | -13 | / | -9 | -7.3 | -4
C=CCOCCN1C(=O)C2C3C=CC(C2C1=O)C1C2C(=O)N(CCOCC=C)C(=O)C2C31 (centres undefined) | 2576 | -4 | -8 | -1 | 1 | 3.5 | 2
O=C(Nc1ccccc1NC(=O)C1CCCO1)c1ccco1 (centres undefined) | 2398 | -15 | -9 | -10 | -14 | -2.1 | -1
CN(C)S(=O)(=O)Oc1ccccc1C(=O)Nc1ccc(F)cc1F | 2523 | 1 | 10 | 2 | 0 | 5.2 | -2
COc1cc(NC(=O)COc2ccc(-n3cnnn3)cc2)c(OC)cc1Cl | 7716 | 1 | 1 | 7 | -18 | 2.4 | 6
COc1cccc(C(=O)/C=C/Nc2ccc(S(=O)(=O)Nc3ncccn3)cc2)c1 | 2177 | 16 | 17 | -17 | -35 | 3.2 | -7
CC1(C)CC(NC(=O)C2CCN(S(=O)(=O)c3ccc(Cl)c(C(F)(F)F)c3)CC2)CC(C)(C)N1 | 3882 | 9 | 7 | / | -18 | 2.1 | 7
N/C(=N\c1nc2ccccc2o1)NC(=O)c1ccccc1 | 4683 | / | / | 2 | -121 | / | /
CCOC(=O)c1c(C)[nH]c(C(=O)CSc2nnc(Nc3ccccc3F)s2)c1C | 2093 | 6 | -3 | -25 | -21 | -1.5 | -6
CCCn1c(=O)c(C(=O)Nc2cccc(C)n2)c(O)c2ccccc21 | 3261 | 7 | -3 | -12 | -39 | 15 | 15
O=C(CSc1nnc(-c2ccccc2)c(-c2ccccc2)n1)Nc1ncc(Cl)cc1Cl | 2581 | 2 | 4 | -6 | -5 | 4.8 | 4
CNC(=O)CCCCC(=O)N/N=C/c1ccc(Cl)cc1Cl | 4003 | / | / | 0 | -21 | / | /
O=C(Cn1cc(Cl)ccc1=O)c1ccc(Cl)cc1 | 2134 | 2 | 1 | 0 | -22 | 3.7 | -2
O=C(N/N=C/c1ccco1)c1cccc(S(=O)(=O)Nc2ccccc2Cl)c1 | 2579 | / | / | 1 | -10 | / | /
COc1ccc(/C=C/C(=O)Nc2ccc(S(=O)(=O)Nc3onc(C)c3C)cc2)cc1OC | 4376 | 13 | 14 | 1 | -1 | 4.5 | 1
C=CCC1S/C(=N/N=C/c2cccs2)NC1=O (centres undefined) | 2583 | / | / | -3 | -40 | / | /
O=C(CC(=O)N/N=C\c1ccc(F)cc1)NCCc1ccccc1 | 3989 | / | / | 0 | -12 | / | /
Cc1nn(S(=O)(=O)c2ccccc2)c(C)c1Sc1ccc([N+](=O)[O-])cc1 | 5347 | 3 | 3 | -4 | 7 | 4.3 | 1
Cc1ccc(C(=O)Nn2c(N)c(S(=O)(=O)c3ccc(C)cc3)c3nc4ccccc4nc32)cc1 | 7509 | -2 | 6 | 1 | -27 | 2.9 | -10
COc1cc(C=O)ccc1OCCCOc1ccccc1[N+](=O)[O-] | 2303 | -6 | -6 | -2 | -38 | 9.8 | 17
O=C(O)CNC(=O)C1(NC(=O)OCc2ccccc2)CCCC1 | 3877 | 1 | 2 | / | 9 | 1.3 | 2
Following part.
SMILES | Autofluor counter | Mtb hypoxia inh | Mtb hypoxia inh growth | BJeLR viability | PrP UTR inh | RN4220 kill | Sa ugtP lethal
O=C(O)CNS(=O)(=O)c1ccc2c(c1)CCCC2 | 4449 | 5 | -1 | -16 | -16 | 0.7 | 4
Cc1cc(C)nc(NC(=O)c2cccs2)c1 | 3856 | 5 | 0 | -25 | -23 | 3.5 | 5
COc1ccc(C(OC(=O)c2ccco2)C(=O)NC2CCCCC2)cc1OC (centres undefined) | 8841 | 6 | -2 | -1 | -16 | 2.2 | 17
O=C(CS(=O)(=O)Cc1ccccc1)N1CCc2ccccc21 | 4454 | 3 | 20 | -10 | -17 | 1.0 | 1
O=C(CCc1ccccc1)Nc1cccc([N+](=O)[O-])c1 | 4383 | 3 | 8 | 10 | -46 | -0.8 | 12
COc1ccccc1NC(=S)N/N=C/c1cccc(C)c1 | 2415 | / | / | -17 | -44 | / | /
COc1ccccc1CNC(=O)N1CCN(c2ccccc2)CC1 | 3606 | 13 | 1 | 5 | -27 | 0.0 | 4
CCOc1ccccc1-n1nnnc1SC(C)C(=O)OC (centres undefined) | 3201 | -2 | -6 | 4 | -17 | 5.2 | 13
COC(=O)C(C)Sc1nnc(Cc2cc(=O)[nH]c(=O)[nH]2)n1-c1ccc(OC)cc1 (centres undefined) | 5465 | / | / | / | 2 | 5.2 | 7
CCCCc1nnc(NC(=O)c2oc3ccccc3c2C)s1 | ? | 9 | 0 | 6 | -25 | 5.9 | -2
CCCOc1cccc(C(=O)NCCCNC(=O)c2cccnc2)c1 | 6247 | 2 | -1 | -7 | -5 | 2.7 | 3
O=[N+]([O-])c1nn(-c2ccc3c(c2)OCCO3)n(O)c1=NCCC1=CCCCC1 | 3441 | 7 | 5 | -2 | -41 | 3.8 | 21
CC1CC(C)CN(CCCNC(=O)CC2Oc3ccccc3NC2=O)C1 (centres undefined) | 5737 | / | / | 4 | -9 | -0.9 | 2
CC(Oc1ccccc1)C(=O)Nc1ccc(C(N)=O)cc1 (centres undefined) | 10552 | -9 | 4 | 2 | -5 | -1.4 | -7
CCN(CC)c1ccc2cc(-c3nc(-c4cc5ccccc5oc4=O)cs3)c(=O)oc2c1 | 7684 | -77 | -6 | / | -15 | 3.4 | 13
CC(C)OCCCNc1ccc(N2C(=O)CCCC2=O)cc1[N+](=O)[O-] | 3149 | 5 | -3 | -2 | -17 | 5.1 | 7
O=c1oc(CCO)cc2ccccc12 | 4349 | 2 | 9 | / | 7 | 5.0 | 4
CCN(c1ccccc1)S(=O)(=O)c1ccc(C(C(=O)OC)C(=O)OC)c([N+](=O)[O-])c1 | 4593 | 7 | 8 | 5 | -16 | 7.5 | 42
O=C1C(Br)=Cc2cccc3cccc1c23 | 2984 | / | / | 1 | -26 | 83 | 92*

Grouped by structure, those above containing a Cl atom
SMILES | Autofluor counter | Mtb hypoxia inh | Mtb hypoxia inh growth | BJeLR viability | PrP UTR inh | RN4220 kill | Sa ugtP lethal
COc1ccc2oc(-c3cccc(NC(=O)CSc4ccc(Cl)cc4)c3)nc2c1 | 2555 | -4 | 2 | -2 | -68 | 19 | -2
CCOC(=O)Cc1c(C)nc2c(-c3ccc(Cl)cc3)c(C)nn2c1C | 2580 | -5 | 3 | 1 | 2 | -2.0 | 9
CC12CCC(=O)N1C(C(=O)Nc1ccc(Cl)c(S(=O)(=O)N3CCCCC3)c1)CS2 (centres undefined) | 6458 | 3 | 0 | -3 | -14 | 0.8 | 6
S=C(NCc1ccccc1)NCc1ccc(Cl)cc1 | 6534 | -2 | -13 | / | -9 | -7.3 | -4
COc1cc(NC(=O)COc2ccc(-n3cnnn3)cc2)c(OC)cc1Cl | 7716 | 1 | 1 | 7 | -18 | 2.4 | 6
CC1(C)CC(NC(=O)C2CCN(S(=O)(=O)c3ccc(Cl)c(C(F)(F)F)c3)CC2)CC(C)(C)N1 | 3882 | 9 | 7 | / | -18 | 2.1 | 7
O=C(CSc1nnc(-c2ccccc2)c(-c2ccccc2)n1)Nc1ncc(Cl)cc1Cl | 2581 | 2 | 4 | -6 | -5 | 4.8 | 4
CNC(=O)CCCCC(=O)N/N=C/c1ccc(Cl)cc1Cl | 4003 | / | / | 0 | -21 | / | /
O=C(Cn1cc(Cl)ccc1=O)c1ccc(Cl)cc1 | 2134 | 2 | 1 | 0 | -22 | 3.7 | -2
O=C(N/N=C/c1ccco1)c1cccc(S(=O)(=O)Nc2ccccc2Cl)c1 | 2579 | / | / | 1 | -10 | / | /
